RGS16-Gao HTS – regulators of human RGS16-Galphao interaction | O15492+P09471 | bead-based flow cytometry RGS16-Galphao binding, fluorescence; actives lie on both sides | binding response (% of control), % at 10 µM | 220,000 compounds, 0.38% hits | AID 1441;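 active means below 25% or above 175%, edge rows of some plates excepted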;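 further: Galphao activated by GDP with aluminum fluoride before binding; 100% = wells without compound and 0% = beads without RGS; some results beyond the cut were filed as inactive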
GALR2 ag – activates the human galanin receptor 2; 140,000 compounds, 0.48% hits; O43603; GALR2-expressing cells, agonist activation read-out; activation, %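 (tested at 5 µM)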; AID 803;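 active means above mean plus 3 SD of all compounds, about 5% in these data, not always enough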;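 further: 0% = vehicle buffer wells and 100% = reference agonist at full effect; tested in CHO reporter cells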
HSV replic up – HSV replication enhancement. HSV replication augmentation in cells, fold increase. maximum fold increase. 220,000 compounds, 0.005% hits. AID 1956;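 active means peak rise of 1.5-fold or more in the series; tested in PC3 cells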;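 further: first round at 10 µM; read as green reporter fluorescence; hits show the peak of a series up to 25 µM; 1 = signal of infected wells without compound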
INS promoter inh – TRM-6 insulin promoter activity inhibition. TRM-6 cells (human fetal islet line), insulin promoter-eGFP reporter, imaging; reporter expression induced with tamoxifen. inhibition, % at 2 µM. 130,000 compounds, 0.9% hits;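 active means inhibition above the mean plus 3 SD, with well images judged a real hit on visual review, cut at about 60% in these data, passing the limit was not always enough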
PKD1 inh – blocks activity of human protein kinase D1 | PKD1 kinase fluorescence polarization assay | inhibition, %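 (about 10 µM by stock and volumes)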 | 200,000 compounds, 0.056% hits | AID 797;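 active means inhibition of 50% or more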;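 further: controls were vehicle for no effect and a reference inhibitor for full effect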
Target sequence (Q15139 whole entry, looked up): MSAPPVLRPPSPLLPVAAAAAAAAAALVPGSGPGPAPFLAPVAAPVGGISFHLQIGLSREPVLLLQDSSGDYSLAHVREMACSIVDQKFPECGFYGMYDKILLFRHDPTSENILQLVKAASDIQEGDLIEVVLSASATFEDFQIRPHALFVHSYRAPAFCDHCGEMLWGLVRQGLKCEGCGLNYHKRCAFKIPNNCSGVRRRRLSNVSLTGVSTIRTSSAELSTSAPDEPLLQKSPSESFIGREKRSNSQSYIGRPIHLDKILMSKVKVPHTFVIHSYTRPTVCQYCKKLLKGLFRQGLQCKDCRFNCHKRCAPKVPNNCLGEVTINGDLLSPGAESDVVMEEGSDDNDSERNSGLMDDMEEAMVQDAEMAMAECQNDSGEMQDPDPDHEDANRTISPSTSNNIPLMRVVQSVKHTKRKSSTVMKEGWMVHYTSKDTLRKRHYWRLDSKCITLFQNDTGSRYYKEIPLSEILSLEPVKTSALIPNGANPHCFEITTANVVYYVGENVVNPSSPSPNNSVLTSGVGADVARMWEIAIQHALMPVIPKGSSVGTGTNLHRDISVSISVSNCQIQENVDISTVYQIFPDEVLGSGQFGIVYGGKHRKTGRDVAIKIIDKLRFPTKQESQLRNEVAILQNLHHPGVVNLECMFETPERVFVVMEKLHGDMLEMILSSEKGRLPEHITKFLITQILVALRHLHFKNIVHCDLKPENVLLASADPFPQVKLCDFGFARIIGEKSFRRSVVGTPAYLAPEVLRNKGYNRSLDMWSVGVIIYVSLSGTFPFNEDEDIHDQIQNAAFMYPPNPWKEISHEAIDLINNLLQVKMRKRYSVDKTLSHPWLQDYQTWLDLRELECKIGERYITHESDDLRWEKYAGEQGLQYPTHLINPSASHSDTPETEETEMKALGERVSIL
INS promoter inh cell count – recorded beside INS promoter inh, whose call it bears; normalized cell count, %; measured here: cell count, toxicity; reference of the scale not given here;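 cells exposed to compound for 48 h; stained nuclei by imaging scaled within each plate; lower means fewer cells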
HSV replic up primary fold – second read-out of HSV replic up, no call of its own (marks repeat the call); fold increase; compound at 10 µM; measured here: primary screen fold increase 10 uM; tested in PC3 cells;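 GFP signal in the first replicate; 1 = infected wells without compound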
Starred values were filed as active, the others as inactive; i = inactive; . = not tested or not shown; & = joins results of further samples.

Compound	RGS16-Gao HTS	GALR2 ag	HSV replic up	HSV replic up primary fold	INS promoter inh	INS promoter inh cell count	PKD1 inh
O=S(=O)(c1ccccc1)N1CCN(C2CCN(Cc3ccccc3)CC2)CC1	117	-1.4	i	0.96	.	.	5
CC1(C)Cc2c(c(N3CCCCC3)[nH]c(=S)c2C#N)CS1	88	-2.2	i	0.95	64	124	-11
CCN=C1SC(CC(N)=O)C(=O)N1CC (stereo unspecified)	100	.	i	1	-8	114	0
CN(C)c1ccc(-c2n[nH]c(=S)n2-c2ccccc2)cc1	92	.	i	0.69	.	.	-2
C=CCOc1ccccc1CNn1nnnc1N	94	-2.6	i	0.83	60	135	-2
Cc1ccc(C)n1-n1c(C)nc2sc(-c3ccccc3)cc2c1=O	102	-0.8	i	0.98	-19	221	-4
Cc1cccc(C)c1NC(=O)c1c(-c2ccccc2)noc1C	88	-2.3	i	0.94	.	.	0
O=C1CC(c2ccc(F)cc2)Sc2nc(-c3ccccc3)c(-c3ccccc3)n21 (stereo unspecified)	72	-2.0	i	0.89	-107	116	-8
CC(C)NC(=O)C12CC3CC(C1)CC(n1cnc(Cl)n1)(C3)C2	102	-1.7	i	1	-5	101	-4
Cc1cccc(CNC(=O)c2ccccc2N)c1	106	-2.1	i	0.87	-23	147	4
Cn1c(SCC(=O)N2CCN(c3ccccc3)CC2)nnc1-c1ccncc1	105	-1.3	i	1.1	-33	111	-6
Cc1ccc(-c2nc(CCN3C(=O)c4ccccc4C3=O)cs2)cc1	103	-1.5	i	0.83	45	90	0
Cc1ccccc1-c1nc2sc3c(c2c(=O)o1)CCC3	123	-1.0	i	0.88	-53	94	-10
CCSC(=O)NC1CCCCC1	98	.	i	0.96	.	.	.
O=C(COC(=O)Cc1cccc(C(F)(F)F)c1)NCC1CCCO1 (stereo unspecified)	105	0.4	i	0.97	-224	103	0
CCOc1ccc(NC(=O)Cn2nc(-c3ccccc3Cl)n(CC)c2=S)cc1	109	-0.4	i	0.83	.	.	-9
O=C(Nc1cccc(C(=O)N2CCOCC2)c1)c1cncc(Br)c1	108	-1.9	i	0.85	-318	34	0
COc1ccc(CCN(C)C(=O)C2CCCN(Cc3ccc(OC)c(OC)c3)C2)cc1OC (stereo unspecified)	104&104	-1.6	i	0.97&0.9	19	95	-6&-1
Clc1ccc2nc(N3CCCCC3)[nH]c2c1	139	-2.3	i	0.98	87*	139*	-12
C/C(CCc1ccc2c(c1)OCO2)=N\N=C1\NC(=O)CC(C(=O)Nc2ccc(Cl)cc2)S1 (stereo unspecified)	106	-1.5	i	1.2	7	120	-7
CCOC(=O)c1nnn2c1nc(N1CCOCC1)c1ccccc12	95	.	i	1.1	.	.	.
COC(=O)[C@@H](NC(=O)N(C1CCCCC1)C1CCCCC1)C(C)C	102	-0.9	i	1.1	.	.	12
CCOC(=O)c1ccccc1NC(=O)CN1C(=O)CCS(=O)(=O)c2ccccc21	108	-1.4	i	1	14	108	-4
Cc1nn(C)c(C(=O)N/N=C/c2ccc(Br)cc2)c1Cl	41	-1.0	i	0.95	-7	86	-4
OCC1CCN(Cc2cn(Cc3ccccc3)nc2-c2cc3ccccc3o2)CC1	99	.	i	0.88	.	.	3
O=C(O)CSc1ccccn1	99	-1.2	i	0.85	-9	106	-10
CCC1(C)Cc2ccccc2-c2nc(NCCCO)n(C)c(=O)c21 (stereo unspecified)	103	.	i	0.89	.	.	.
Cc1ccc(C(=O)C[n+]2cc(-c3ccc(C)cc3)n3c2CCCCC3)cc1	108	-1.6	.	.	.	.	-16
CC(=O)Nc1ccc(NC(=O)CSc2nnc(-c3ccco3)n2Cc2ccco2)cc1	104	-2.9	i	0.92	-35	171	12
Nc1nonc1N1CCCCC1	104	0.7	i	0.94	50	104	-2
CC(=O)Nc1ccc(NC(=O)c2ccc(C)c(S(=O)(=O)Nc3cccc(C)c3)c2)cc1	103	.	i	0.92	.	.	-3
CO[C@@]1(NC(=O)Cc2cccs2)C(=O)N2C(C(=O)O)=C(COC(N)=O)CS[C@@H]21	123	-0.7	i	1	5	48	-13
COc1cc(/C=C(\C#N)C(=O)NCc2cccs2)ccc1O	109	-0.1	i	1.2	-42	129	9
COc1cc(S(=O)(=O)Nc2ccc3cn[nH]c3c2)ccc1Cl	98	.	i	1	.	.	-3
O=C(Nc1cc(Cl)cc(Cl)c1)C1CCC(=O)N1Cc1ccccc1Cl (stereo unspecified)	98	-1.4	i	0.86	-40	95	-3
NC(=O)CSc1n[nH]c(-c2ccco2)n1	106	.	i	0.94	.	.	.
O=C(CC1C(=O)NC2CCCCC2N1C(=O)c1ccc(F)cc1)Nc1ccccc1 (stereo unspecified)	71	-1.2	i	0.89	-285	87	-2
Cc1ccc(OCCn2c(=O)oc3ccc(C)cc32)cc1	36	.	i	1	-13	128	0
CCCCCN(C(=O)NC(=O)Nc1ccccc1C)S(=O)(=O)c1ccccc1	99	-0.8	i	0.97	-12	87	2
CCOC(=O)c1sc(NC(=O)c2ccc(C)s2)cc1C	106	-1.2	i	0.78	58	63	8
O=[N+]([O-])c1ccc(S(=O)(=O)NCC2CCCO2)cc1 (stereo unspecified)	123	-0.9	i	0.96	16	33	7
Nc1nc(NCCCN2CCOCC2)nc(Nc2ccc(F)cc2)c1[N+](=O)[O-]	69	0.4	i	0.84	-26	68	-4
O=C(O)c1cccc(NC(=S)N/N=C/c2ccccc2OCc2cccc(Br)c2)c1	82	.	i	0.96	0	121	5
Oc1c(N=NC(=S)Nc2ccccc2F)c2ccccc2n1Cc1ccccc1Cl	102	.	i	1.1	.	.	-3
CCOC(=O)c1cc(CC)sc1NC(=O)c1cc([N+](=O)[O-])ccc1N1CCOCC1	100	-0.8	i	0.71	.	.	1
C/C(Cl)=C/Cc1c(C)[nH]c2ccc(C)cc2c1=O	94	-0.5	i	0.79	27	71	-3
COc1ccc(C(=O)[C@H]2[C@H]3C(=O)N(c4ccc(OC(C)=O)cc4)C(=O)[C@H]3C3C=CC=NN32)cc1 (stereo partly specified)	97	.	i	0.99	.	.	.
COc1ccc(CCN(Cc2cc3cccc(C)c3[nH]c2=O)C(=O)NC2CCCCC2)cc1OC	100	0.8	i	0.77	37	72	3
CC(=O)Nc1ccc(C(=O)NCCc2ccccc2)cc1	79	-1.4	i	0.94	53	97	17
COc1ccc(Nc2nc(Cl)nc(Nc3ccc(OC)cc3)n2)cc1	95	.	i	0.96	19	108	-5
CCOc1cc(/C=N/NC(=O)CNc2ccc(C)cc2)ccc1OC(=O)c1ccccc1	107	0.5	i	1	16	74	-8
O=C(O)CCCCCNC(=O)Cn1nnc2ccccc2c1=O	90	.	i	1.2	.	.	.
O=C(/C=C/c1ccccc1Cl)Nc1cccc(O)c1	99	.	i	1.1	38	97	8
C=CCc1c(C)nc(-c2ccccc2)nc1N/N=C/c1ccncc1	95	.	i	0.9	-44	142	3
COc1ccc(N2CCN(c3ccc(N4C(=O)COCC4=O)cc3[N+](=O)[O-])CC2)cc1	100	-1.1	i	0.98	-4	101	-11
CCCOc1ccc(CSc2nc3ccccc3[nH]2)cc1	54	-0.6	.	.	24	86	5
O=S(=O)(CCN1CCSCC1)c1ccccc1	98	.	i	1	.	.	.
O=C(N/N=C/c1cccs1)c1cccnc1	99	.	i	0.84	.	.	.
Cc1ccc(C2N(c3cccc(Cl)c3)C(=O)N3CCCN23)cc1 (stereo unspecified)	102	.	i	1.1	.	.	.
O=C(NNc1nc(-c2ccc(Br)cc2)cs1)c1ccco1	104	.	i	0.88	.	.	-4

As a short view, some entries already given.
Compound	RGS16-Gao HTS	GALR2 ag	HSV replic up	HSV replic up primary fold	INS promoter inh	INS promoter inh cell count	PKD1 inh
O=S(=O)(c1ccccc1)N1CCN(C2CCN(Cc3ccccc3)CC2)CC1	117	-1.4	i	0.96	.	.	5
CC1(C)Cc2c(c(N3CCCCC3)[nH]c(=S)c2C#N)CS1	88	-2.2	i	0.95	64	124	-11
CCN=C1SC(CC(N)=O)C(=O)N1CC (stereo unspecified)	100	.	i	1	-8	114	0
CN(C)c1ccc(-c2n[nH]c(=S)n2-c2ccccc2)cc1	92	.	i	0.69	.	.	-2
C=CCOc1ccccc1CNn1nnnc1N	94	-2.6	i	0.83	60	135	-2
Cc1ccc(C)n1-n1c(C)nc2sc(-c3ccccc3)cc2c1=O	102	-0.8	i	0.98	-19	221	-4
Cc1cccc(C)c1NC(=O)c1c(-c2ccccc2)noc1C	88	-2.3	i	0.94	.	.	0
O=C1CC(c2ccc(F)cc2)Sc2nc(-c3ccccc3)c(-c3ccccc3)n21 (stereo unspecified)	72	-2.0	i	0.89	-107	116	-8
CC(C)NC(=O)C12CC3CC(C1)CC(n1cnc(Cl)n1)(C3)C2	102	-1.7	i	1	-5	101	-4
Cc1cccc(CNC(=O)c2ccccc2N)c1	106	-2.1	i	0.87	-23	147	4

(more compounds)
Compound	RGS16-Gao HTS	GALR2 ag	HSV replic up	HSV replic up primary fold	INS promoter inh	INS promoter inh cell count	PKD1 inh
Cc1ccc2[nH]c3c(c2c1)CN(C(=O)CN1CCN(c2ccccc2F)CC1)CC3	76	-0.6	i	1	41	118	0
O=C(c1cccc(F)c1F)N1CCCC1	94	-1.5	i	0.86	25	81	1
CC(C)C(c1nnnn1Cc1ccc(F)cc1)N1CCN(C(=O)c2ccco2)CC1 (stereo unspecified)	87	-1.1	i	0.93	50	110	-3
COc1ccc2c(-c3ccccc3)cc(SCC(=O)N(C)C)nc2c1	82	.	i	1	8	104	-6
CN1CCN(c2ccccc2NC(=O)c2ccc([N+](=O)[O-])cc2Cl)CC1	98	.	i	0.86	.	.	-8
COc1ccc(C(=O)Nc2sc(C)c(C)c2CN2CC(C)OC(C)C2)cc1 (stereo unspecified)	102	-0.6	i	0.9	21	111	8
CCOc1ccc(S(=O)(=O)NCc2ccco2)cc1	105	-2.4	i	0.87	42	150	5
COCCSc1nnc(-c2cccc(C#N)c2)n1C	103	-2.1	i	0.91	-79	33	6
C/C(N)=C(\C#N)C(=O)NCc1ccccn1	103	-0.5	i	1.1	55	206	-6
CCOC(=O)C1CCCCN1Cc1cc(Cl)ccc1O (stereo unspecified)	105	-0.7	i	1	32	45	5
CC(C)C(=O)NNC(=O)CSc1nc(C2CCCCC2)nc2ccccc12	110	-0.7	i	1	10	85	6
Cc1cc(C)c2c(c1)c(C)cc1nnc(SCC(=O)c3cccs3)n12	98	0.5	i	1.1	.	.	-11
COCCNC(=O)/C(C#N)=C/c1ccc(C(=O)O)cc1	101	.	i	0.92	.	.	0
O=C(O)/C(=C1/OC(=O)c2ccccc21)c1ccccc1	100	-0.4	i	0.92	.	.	-7
COC(C(=O)Nc1ccccc1F)c1ccccc1 (stereo unspecified)	99	-2.3	i	0.9	-18	180	-3
C/C(=C\C(=O)c1ccccc1)NCc1ccc(F)cc1	107	-0.9	i	0.94	.	.	-6
